Screening data as filed in PubChem.
D2 agonist: Beta-Arrestin HTS for Positive Allosteric Modulators of the Human D2 Dopamine Receptor: Agonists; activation, % (test concentration not listed); D(2) dopamine receptor (Homo sapiens), P14416; 360,000 tested, 0.084% active; DiscoveRx PathHunter D2 beta-arrestin, luminescence, 90 min; 100% = 57 uM dopamine signal; AID 624465, 2012; in the data active = activation above about 40%; inconclusive = about 15% to 40%; inactive = below about 15%; also: compound concentration not given in the record; the text of the record calls up to 30% inactive
Target sequence (P14416 whole entry, looked up): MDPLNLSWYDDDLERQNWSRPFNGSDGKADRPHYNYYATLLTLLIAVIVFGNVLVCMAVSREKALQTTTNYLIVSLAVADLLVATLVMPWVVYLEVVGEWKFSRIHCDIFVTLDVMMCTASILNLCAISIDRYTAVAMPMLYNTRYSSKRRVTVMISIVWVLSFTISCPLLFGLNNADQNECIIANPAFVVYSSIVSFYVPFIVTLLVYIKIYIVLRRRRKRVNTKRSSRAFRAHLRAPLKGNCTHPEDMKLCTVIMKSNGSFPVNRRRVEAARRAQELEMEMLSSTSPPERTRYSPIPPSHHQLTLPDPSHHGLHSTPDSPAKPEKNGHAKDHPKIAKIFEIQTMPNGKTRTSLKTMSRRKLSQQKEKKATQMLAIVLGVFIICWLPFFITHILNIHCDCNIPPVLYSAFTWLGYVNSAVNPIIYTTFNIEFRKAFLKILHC
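DiscoveRx PathHunter D2 beta-arrestin cells (2,100/well) attached overnight, then compound-stimulated 90 min at 37 C in HBSS/10 mM HEPES/0.1% Tween-20 buffer; beta-galactosidase complementation read by luminescence after 1 h at ambient temperature. Dopamine 57 uM final (EC100) as control.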
Sfp inh: qHTS Assay for Inhibitors of Bacillus subtilis Sfp phosphopantetheinyl transferase (PPTase); Potency, µM, inactives show max response, negative = inhibition, usual class: inhibitors; Biochemical Sfp PPTase activity, qHTS; 310,000 tested, 3.5% active; 4'-phosphopantetheinyl transferase ffp (Bacillus subtilis), Q9F4F7; active = well fitted inhibition curve with a large enough effect; inconclusive = small, poorly fitted or top-dose-only effect, or another doubt; inactive = no such curve, though single readings can be large or run the other way;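 also: the enzyme is Sfp with the accession as filed and its product quenches rhodamine fluorescence; potency is read from the fitted curve at half-maximal effect; 0% = enzyme reaction without inhibitor and -100% = no enzyme wells; top concentration of the series not given in the record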
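Reaction rates are the 30-min fluorescence difference (ex 525, em 598 nm) in wells containing 15 nM Sfp, 5 uM rhodamine-CoA and 12.5 uM BHQ-2-YbbR at pH 7.6 with 10 mM MgCl2.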
PINK1 modulator: A Quantitative High throughput Screen to Identify Chemical Modulators of PINK1 Expression. PINK1 immunofluorescence, high-content cytometry, 24 h. Potency, µM (doses to about 76.6 µM), for inactives: top-dose activation (PINK1 increase), most hits filed as activators. 410,000 tested, 0.2% active; active = well fitted activation curve with a large enough effect; inconclusive = small, poorly fitted or top-dose-only effect; inactive = flat fitted curve, though single readings scatter; cell line not stated here;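 also: potency is read from the fitted curve at half-maximal effect; % of control where 0% means no effect; nearly all actives have a fitted effect of over 65% in size; a mitochondrial uncoupler was the plate control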
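PINK1 protein, normally rapidly degraded, was detected by immunofluorescence after 24 hour compound treatment of a stable cell line. Titration data (5 concentrations) came from laser-scanning cytometry, with CCCP-treated wells as controls.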
gsp antag: qHTS for Antagonists of gsp, the Etiologic Mutation Responsible for Fibrous Dysplasia/McCune-Albright Syndrome: qHTS; 340,000 tested, 0.4% active; Potency, µM (top dose mostly 76.9 µM), inactives show at the top dose activity change, negative = inhibition, actives largely listed as inhibitors; AID 624288, 2012; gsp-mutant cells, cAMP HTRF, 30 min; control for the full effect not named in the record; active = falling curve of any shape with a large fitted effect; inconclusive = falling curve, mostly with a smaller effect; inactive = flat or rising curve; cell line not stated here;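 also: intracellular cAMP measured with PDE inhibitor Ro 20-1724 present during compound exposure; potency is read from the fitted curve at half-maximal effect; % is scaled to controls: 0 for no effect and ±100 for the full control effect; nearly all actives have a fitted effect of over 65% in size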
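HTRF cAMP measurement after 30 min RT detection following 30 min, 37C compound treatment alongside […] (added as 300 uM solution) in G418-selected cells seeded at 2000/well and grown 16–24 h.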
gsp ag: qHTS for Agonist of gsp, the Etiologic Mutation Responsible for Fibrous Dysplasia/McCune-Albright Syndrome: qHTS; gsp mutant cells, cAMP HTRF, 30 min; control for the full effect not named in the record; Potency, µM (doses to about 76.9 µM), without a hit: top-dose activation (cAMP increase), most hits filed as activators; 340,000 tested, 0.13% active; AID 624287, 2012; active = well fitted activation curve with a large enough effect; inconclusive = small, poorly fitted or top-dose-only effect, or another doubt; inactive = no such curve, though single readings can be large or run the other way; cell line not stated here;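 also: phosphodiesterase inhibitor Ro 20-1724 added with compounds to block cAMP breakdown; potency is read from the fitted curve at half-maximal effect; nearly all actives have a fitted effect of over 60% in size; about a fifth of the inactives were tested at one dose only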
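Cells in DMEM/10% FBS with G418 were pretreated with compounds in DMSO plus […] (300 uM stock) for 30 min at 37C. cAMP was measured by HTRF (cAMP-d2 plus anti-cAMP antibody-K) after 30 min at room temperature.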
ClpP mod: qHTS Assay for Activators of ClpP; Potency, µM (doses to about 57.5 µM), for inactives: at the top dose activity change, negative = active; 340,000 tested, 1.9% active; purified B. subtilis ClpP, FRET peptide cleavage, 20 min; ATP-dependent Clp protease proteolytic subunit (Bacillus subtilis (strain 168)), P80244; active = well fitted falling curve with a large enough effect; inconclusive = small, poorly fitted or top-dose-only effect; inactive = no such curve, though single readings can be large or run the other way; also: potency is read from the fitted curve at half-maximal effect; the source files actives as falling curves though it sought activators and does not explain the sign; nearly all actives have a fitted effect of over 65% in size; many hits overshoot -100%
Target sequence (P80244 whole entry, looked up): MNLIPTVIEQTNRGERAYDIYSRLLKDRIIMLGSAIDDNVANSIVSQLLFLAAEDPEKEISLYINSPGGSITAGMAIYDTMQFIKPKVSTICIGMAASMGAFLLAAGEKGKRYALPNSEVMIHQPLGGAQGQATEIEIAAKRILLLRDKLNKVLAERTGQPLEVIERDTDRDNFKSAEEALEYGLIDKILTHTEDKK
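FRET quenching reversal measured ClpP activation: 10 microg/mL B. subtilis ClpP at pH 8 with the FRET-FV decapeptide, read at 430 nm after 320 nm excitation. The 20-min minus 0-min signal was scaled between DMSO/no-enzyme wells and ADEP (5.8 microM final).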
Menin-MLL FL inh: qHTS Assay for Inhibitors Targeting the Menin-MLL Interaction in MLL Related Leukemias: Competition With Fluorescein Labeled MLL-derived Peptide. Fluorescence polarization, fluorescein-MLL peptide displacement from menin. FP activity change, % at 61.4 µM. 290,000 tested, under 10 active; inconclusive = falling polarisation curve, or a change in total fluorescence; inactive = total fluorescence flat and polarisation flat or rising; no compound was filed as active; the % refers to the polarisation; negative = inhibition;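 also: % of control where 0% means no effect; inhibitors lower the polarisation; unlabelled MLL peptide was the positive control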
* hit, by the source's call; ? = inconclusive; . = no result given; [ ] = another dose, or the depositor's remark. Random draw from the library. Share with any hit: about 5.1%.

SMILES	D2 agonist	Sfp inh	PINK1 modulator	gsp antag	gsp ag	ClpP mod	Menin-MLL FL inh
O=C(Cc1cccc(NC(=O)C2CCCN(C(=O)c3ccccc3)C2)c1)Nc1cccc(C(=O)N2CCCCC2)c1 (stereo unspecified)	2.8	.	0.2%	6.8%	.	2.5%	.
CN1CCN(C(=O)CCCN2C(=O)/C(=C/c3ccc(Cl)cc3)SC2=S)CC1	0.1	.	5.1%	-2.3%	14.1%	1.4%	.
CCn1c(C)c(C)c2cc(C(=O)NC3CCCCCC3)ccc21	-2.9	-20.6%	2.2%	-0.2%	-22.3%	-13.2%	4.4
C(=C\c1ccccc1)/CN1CCN(C(c2cc3ccccc3o2)c2nnnn2Cc2ccccc2)CC1 (stereo unspecified)	-4.7	.	2.8%	.	.	-8.1%	.
CCOc1ccc(CNC(=O)CCS(=O)(=O)c2ccc3c(c2)NC(=O)CO3)cc1OC	-2.8	10.2%	-2.0%	14.4%	0.6%	-1.3%	0.0
O=C(CNC(=O)c1ccc(Cl)cc1)N/N=C/c1cccnc1	-1.2	36.6%[activator]	1.9%	4.3%	?	.	3.0
Oc1c(C(c2ccccc2)N2CCCCC2)ccc2ccccc12 (stereo unspecified)	6.1	.	18.2%	.	-2.5%	0.5%	.
COc1ccc(S(=O)(=O)Nc2ccc(C)cc2)cc1N(C)S(=O)(=O)c1ccc(Cl)cc1	-1.8	3.9%	.	-8.7%	-4.9%	-1.6%	-1.1
CCN(CC(=O)Nc1ccc(S(=O)(=O)N2CCCC2)cc1)CC(=O)Nc1ccccc1C(F)(F)F	-1.6	.	2.1%	-10.3%	4.6%	0.0%	.
O=C(CCCOc1ccc(Cl)cc1Cl)n1nnc2ccccc21	-2.1	15.5%	4.2%	-0.2%	-46.7%[inhibitor]	-0.4%	4.4
Cc1ccc(C(=O)O/N=C(\N)c2ccc(Br)cc2)cc1	?	-5.0%	11.1%	12.9%	4.5%	1.2%	6.4
C=CCn1c(NC(=O)c2ccc(C)cc2)nc2ccccc21	-2.8	22.9%	3.8%	7.7%	?	.	4.2
CC(=O)OCc1cc(-c2nn(C)c(=O)c3ccccc23)ccc1C	-4.2	-6.6%	3.3%	.	-4.5%[15.4 µM]	.	-2.5
CN(C)CC(=O)Nc1ccc2cn[nH]c2c1	-3.9	18.6%	1.1%	8.3%	2.1%	0.7%	0.9
Nc1ccc2c(c1)N1CCN=C1S2	1.5	4.5%	1.0%	7.3%	6.9%	-1.7%	-1.7
C[C@@H]1C=C(C(=O)NCc2ccccc2)O[C@H](OCc2ccc(CO)cc2)C1	0.1	16.3%	-1.1%	-8.9%	.	-0.1%	-0.7
COc1ccccc1OCCOCCOc1ccc(C)cc1[N+](=O)[O-]	-2.4	0.2%	2.1%	-4.6%	-7.8%	0.4%	7.6
OCCNCCOc1ccccc1-c1ccccc1	2.3	2.1%	0.6%	20.3%	0.1%	-0.9%	-0.8
Cn1nccc1NS(=O)(=O)c1ccc(C(C)(C)C)cc1	1.9	7.9%	-0.8%	-11.3%	-3.9%	.	-0.8
N#CCCn1c(=O)c(-c2ccccc2)nc2cnc(Oc3ccccc3)nc21	.	2.2%	0.2%	.	.	.	8.3
NC(=O)C1CCN(S(=O)(=O)c2ccccc2[N+](=O)[O-])CC1	-6.8	13.3%	1.5%	9.6%	-4.8%	0.3%	1.0
CCOc1ccc(NC(=O)C2CCCN2C(=O)OCc2ccccc2)cc1 (stereo unspecified)	-1.3	4.7%	0.6%	1.7%	5.4%[15.4 µM]	.	2.0
O=C(COc1ccc(Br)cc1CO)Nc1ccccc1	-0.3	11.4%	-0.5%	4.9%	16.1%	0.3%	1.7
Cc1nc2n(n1)CC(O)CS2 (stereo unspecified)	2.7	15.1%	-0.5%	4.8%	12.8%	-2.3%	-5.8
COc1ccc(C)cc1NC(=O)C(NC(=O)c1cc(OC)c(OC)c(OC)c1)C(C)C (stereo unspecified)	-20.4	17.6%	4.1%	.	17.8%[15.4 µM]	.	-1.2
Cn1c2ccc(F)cc2c2ncn(CC3CCCO3)c(=O)c21 (stereo unspecified)	-2.0	1.0%	1.9%	4.6%	-5.1%	4.0%	0.7
CCOC(=O)c1ccc(NC(=O)CC2C(=O)N(c3cccc(OC)c3)C(=O)N2CCOC)cc1 (stereo unspecified)	-3.7	16.1%	1.5%	-8.5%	-23.4%	0.5%	1.0
O=C(NCCCN1CCOCC1)c1ccc(N2CCOCC2)c([N+](=O)[O-])c1	-2.6	9.2%	-1.3%	1.6%	0.7%	-0.3%	.
Cc1nnsc1C(=O)Nc1cccc(Cl)c1C	3.3	-11.9%	7.3%	9.0%	14.1%	.	-2.5
CCOC(=O)C(Cc1c[nH]c2cc([N+](=O)[O-])ccc12)(NC(C)=O)C(=O)OCC	-1.6	.	-0.5%	-5.3%	-14.2%	.	.
CC(=O)c1ccc(NC(=O)c2cc(C)nc3ccccc23)cc1	-1.5	10.2%	0.7%	-1.2%	4.8%[15.4 µM]	1.0%	3.3
CCCn1c(/C=C/c2ccco2)nc2ccccc21	2.7	35.5µM*	0.6%	0.7%	-19.5%	-26.7%	?
COc1ccccc1-c1nnc(SCC(=O)NC2CCCCC2)n1C	-1.6	7.7%	0.0%	3.5%	-16.4%	.	0.5
Cc1ccc(C(C(=O)NC2CCCCC2)N(C(=O)c2csnn2)C2CC2)cc1 (stereo unspecified)	-4.8	18.4%	-1.7%	-3.1%	5.0%	.	.
COc1cccc(NC(=O)c2ccc(S(=O)(=O)N(C)C)cc2)c1	-2.5	17.0%	-0.5%	-1.2%	-21.4%	-0.8%	-4.3
C#CCOCCOCCOCCNc1nc(N2CCN(C(=O)[C@H](Cc3ccc(O)cc3)n3cc([C@@H](N)C(C)CC)nn3)CC2)nc(N2CCN(C(=O)[C@H](CCCCN)n3cc([C@@H](N)CO)nn3)CC2)n1 (stereo partly specified)	-1.9	8.7%	-1.3%	7.4%	6.3%	2.2%	4.7
Cc1ccc(S(=O)(=O)N2[C@@H](c3ccccc3)C(C(=O)O)=CC[C@H]2c2cccs2)cc1	-4.2	.	2.1%	-2.6%	-12.9%	0.2%	.
COc1cc2ncnc(NCc3ccc(C)cc3)c2cc1OC	-2.5	-11.1%	0.6%	3.7%	-1.3%	-15.8%	-2.1
C[C@H](CO)N1C[C@H](C)[C@@H](CN(C)S(=O)(=O)c2ccccc2)Oc2ccc(NS(=O)(=O)c3ccccc3)cc2C1=O	-0.9	.	2.2%	-16.0%	.	-0.6%	.
C=C(C)CSc1nncn1/N=C/c1ccc(OC)cc1	-1.7	-5.6%	2.4%[38.3 µM]	-7.7%	2.5%	-4.8%	-1.3
O=C(Nc1nccs1)c1ccc(NC(=O)C2CC=CCC2C(=O)O)cc1 (stereo unspecified)	-1.1	20.7%	1.2%	-4.1%	?	-1.2%	-2.3
CCCC(=O)NCCc1nc2ccccc2n1C	-2.5	17.1%	-3.2%	1.2%	20.8%	0.4%	0.2
Cc1cc(C)nc(SCC(=O)Nc2ccc(N3CCOCC3)cc2)n1	-0.4	6.4%	-0.2%[38.3 µM]	-20.1%	6.9%	0.9%	3.0
CS/C(=C\[N+](=O)[O-])Nc1ccccc1	1.1	-5.6%	-2.3%	4.2%	25.6%	0.5%	0.7
Cc1cc(C)nc(SCc2ccc(C(=O)N/N=C/c3ccccn3)cc2)n1	-1.2	-4.4%	-1.8%	10.4%	-1.7%[15.4 µM]	-23.7%	-0.6
CCc1ccc(-c2cc(C(F)(F)F)n3nc(C(=O)Nc4c(C)nn(Cc5ccccc5C)c4C)cc3n2)s1	-0.5	-9.1%	?	8.1%	11.4%	?	-1.7
O=C(NCCNc1ccc([N+](=O)[O-])cc1)c1ccc(Cl)cc1	-3.0	-6.6%	2.2%	9.1%	-7.8%[15.4 µM]	.	-3.9
COc1ccccc1NS(=O)(=O)c1ccc(NC(=O)Cc2cccs2)cc1	0.5	14.9%	1.2%	14.7%	-27.7%	-2.2%	11.8
COc1cccc(S(=O)(=O)N(C)C[C@H]2OCc3cnnn3CCCC(=O)N([C@H](C)CO)C[C@@H]2C)c1	-4.0	.	1.8%	.	-41.1%[inhibitor]	-0.1%	.
CC(C)(CO)CNC(=O)CCc1nnc(-c2ccc(-c3ccccc3)cc2)o1	-2.4	19.4%	1.6%	-7.3%	-4.0%	4.2%	-1.3
S=C(NCc1ccccc1)NCc1ccccc1Cl	-2.5	11.4%	1.3%	-1.1%	19.4%	-2.2%	.
CCCC(=O)NC(=S)Nc1ccccc1C(=O)OC	-3.2	?	-1.5%	3.5%	-13.4%	-1.3%	2.6
CC1(C)CN(O)CCN1O	1.5	-13.4%	1.9%	9.6%	-1.5%	-9.5%	0.4
Cc1nc2ccc(S(=O)(=O)NC(C(=O)N3CCCCCC3)C(C)C)cc2s1 (stereo unspecified)	-1.7	12.8%	-0.5%	4.3%	-32.1%[inhibitor]	-1.7%	4.4
CC(CCN1CCOCC1)c1ccccc1 (stereo unspecified)	-1.5	-17.4%	2.3%	4.7%	-1.5%	1.4%	-3.3
O=C(CSc1nnc(CNC(=O)c2c(F)cccc2F)o1)NCC1CCCO1 (stereo unspecified)	-0.6	10.2%	0.8%	8.8%	-8.4%	1.0%	0.2
S=C(Nc1ccccn1)NC1CCCCC1	2.8	?	2.8%	-10.9%	-8.5%[15.4 µM]	.	0.6
CNC(=O)C(=O)NCC1OCCN1S(=O)(=O)c1ccc2c(c1)OCCO2 (stereo unspecified)	-0.3	18.3%	3.8%	3.5%	3.5%[15.4 µM]	.	4.5
O=c1c2cnn(-c3ccccc3)c2ncn1Cc1cccc(Cl)c1	-0.4	3.0%	16.8%	2.5%	8.5%	-9.0%	2.2
